LANA-nucl inh – inhibitors of KSHV LANA binding to nucleosomes; FITC-LANA1-23 / chicken nucleosome fluorescence polarization; hits give low values; z-score (concentration not given with the values); hit rate 0.3% among 51,000;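 active = both repeat wells score below -2 in polarization z-score versus plate sample wells, excluding overly bright wells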;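 note: 100 nL library stock added to about 30 µL; numbers are from one replicate; some results filed as inactive read as strong as hits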
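Assay system: purified chicken nucleosomes with FITC-labelled LANA N-terminal peptide (1-23) / Probe or stimulus: 50 nM FITC-LANA1-23 probe / Compound dosing: pin-transferred compound, 100 nL / Times: compound with peptide–nucleosome mix 10–45 min at room temperature / Technique: fluorescence polarization, 480 nm excitation, 535 nm parallel and perpendicular emission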
Ab BasE inh – inhibitors of Acinetobacter baumannii siderophore enzyme BasE. inhibition, % (test concentration not listed). purified BasE, fluorescence polarization binding displacement. hit rate 0.1% among 84,000;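 active = both replicates above 25% with normal brightness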;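 note: 0% = negative plate control signal and 100% = positive plate control signal; stock transfer was 100 nL into about 30 µL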
* = called active by the depositor; · = no result given; & = joins results of further samples.

SMILES	LANA-nucl inh	Ab BasE inh
CC(C)(C)C(=O)OCOC(=O)[C@@H]1N2C(=O)[C@@H](NC(=O)[C@H](N)c3ccccc3)[C@H]2SC1(C)C	-0.5	-0.1
C#C[C@]1(O)CC[C@H]2[C@@H]3CCC4=Cc5oncc5C[C@]4(C)[C@H]3CC[C@@]21C	1.5&0.33	-2.0
CC1CCCC(C)N1S(=O)(=O)c1ccc(NC(=O)c2ccccc2C(=O)N2CCOCC2)cc1 (stereo not given)	-0.68	1.1
Cc1oc(-c2ccccc2F)cc1CO	0.4	-0.7
CN(C)C(=O)/C=C/c1cn(-c2ccccc2)nc1-c1cc2ccccc2o1	·	1.2
CCCSc1nc2sc3c(c2c(=O)[nH]1)C(C)CCC3 (stereo not given)	1.1	-0.2
COc1ccc(C2NC(=O)NC3=C2C(=O)CCC3)cc1 (stereo not given)	·	-1.7
CCOC(=O)C1=C(CSc2nnc3n(-c4ccccc4)c(=O)c4ccccc4n23)NC(=O)NC1C (stereo not given)	·	1.1
COc1ccccc1N(C(C)=O)C1SC(=O)N(c2ccccc2)C1=O (stereo not given)	0.38	-1.8
O=Nc1c(O)n2c3c(cccc13)CCC2	-0.68	1.5
CCn1nc(C)cc1C(=O)n1nc(C)c(Sc2ccc(C(F)(F)F)cn2)c1C	-0.59	1.4
CNC(=O)NC(=O)CSc1nnc(-c2ccncc2)n1Cc1ccccc1	·	-0.7
O=C(ON(Cc1c(F)cccc1Cl)Cc1c(F)cccc1Cl)C1CC1	0.53	·
CN(C)c1nc(N)nc(Cn2cnc3sc4c(c3c2=O)CCCC4)n1	0.86	1.7
CC1=NCCN1CCNC(=O)Nc1ccc(F)cc1	-0.59	·
C=CCNC(=O)CCn1c(=O)sc2ccccc21	-0.91	0.0
O=C(CSc1nnc(-c2ccccc2)o1)Nc1ccccc1	-0.2	-2.5
Cc1ncc(CO)c2c1Oc1[nH]c(-c3ccccc3)nc(=S)c1C2	0.18	-1.2
CCCC1(CCC)NC(=O)N(CCOc2ccc(C)cc2)C1=O	·	1.2
CCN(Cc1ccccc1)Cc1nnnn1CCOC	-0.32	0.2
Cc1ccccc1C(=O)NC1CCN(CC(=O)NC(C)(C)C)CC1	-0.97	1.5
O=C(Oc1ccc2oc(-c3ccco3)cc(=O)c2c1)c1ccccc1	3	-2.6
CC1CCCCN1C(=O)c1ccccc1F (stereo not given)	1.8	-1.4
Cc1ccccc1NC(=O)/C=C/c1ccc2c(c1)OCO2	·	2.9
O=C1CSC(c2ccc(Cl)cc2)N1Nc1nc(Nc2ccccc2)nc(N2CCCCC2)n1 (stereo not given)	·	2.4
COc1cccc(C(=O)OCC(=O)N2c3ccccc3CC2C)c1 (stereo not given)	·	2.9
CN(Cc1nc2ccccc2n1C)S(=O)(=O)c1ccc(F)cc1	-0.74	-0.9
COc1cc(C2C(C#N)=C(SCC(=O)c3cc4ccccc4o3)NC3=C2C(=O)CC(C)(C)C3)cc(OC)c1OC (stereo not given)	-1	-4.1
Cc1ccc(CNC(=O)C2CCN(S(=O)(=O)N3CCC4(CC3)OCCO4)CC2)cc1	-1.3	0.9
O=C1CSC(c2ccccc2O)N1Cc1ccccc1 (stereo not given)	-0.31	-0.2
CN(C)S(=O)(=O)c1cccc(C(=O)N2CCN(c3ccccc3)CC2)c1	·	1.3
COc1cc(C)c(Cl)cc1S(=O)(=O)N(C)C	0.23	-6.9
O=C(c1ccc2c(c1)OCO2)N1CCN(C2c3ccccc3-c3ccccc32)CC1	-2.3*	3.0
CC(C)NS(=O)(=O)c1ccc(NC(=O)C2CCCCC2)cc1	-0.24	3.1
Cc1nn(-c2ccccc2)c(C)c1/C=N/NC(=O)c1ccc2c(=O)n3c(nc2c1)CCCCC3	·	2.1
CCCc1c(C(=O)Nc2ccc(N3CCCCC3)cc2)cnn1-c1ccccc1	-0.8	·
CC(NC(=O)CSc1ccccn1)c1ccc2c(c1)OCO2 (stereo not given)	·	-1.6
CCCNC(=O)c1cc(-c2ccc(Cl)cc2)n[nH]1	-0.5	-1.9
O=c1[nH]nnn1-c1ccccc1	·	0.4
COc1ccc(C)cc1S(=O)(=O)N1CCN(C)CC1	·	2.1
C=CCNc1cnn(-c2ccccc2)c(=O)c1Cl	-0.59	-1.0
O/N=C/c1ccc(Br)cc1	0.66	1.2
CC(C)(C)NC(=O)COc1ccc2c(c1)OCO2	-1	2.8
CCCCc1c(O)nc2cc(C)ccn2c1=O	-1.1	1.4
O=C(N1CCC(c2ccccc2)=N1)C(F)(F)F	-0.14	-2.0
Cc1ccc(NC(=O)C(C)C(=O)Nc2ccc(C)cc2)cc1	0.81	-0.5
O=C1c2ccccc2NC(c2cccs2)N1c1ccc2c(c1)OCCO2 (stereo not given)	·	1.3
O=C(O)CCCC(=O)Nc1ccccc1	·	2.6

Laid out differently: entries from further up
O=C(N1CCC(c2ccccc2)=N1)C(F)(F)F
- LANA-nucl inh = -0.14
- Ab BasE inh = -2.0

Cc1ccc(NC(=O)C(C)C(=O)Nc2ccc(C)cc2)cc1
- LANA-nucl inh = 0.81
- Ab BasE inh = -0.5

O=C1c2ccccc2NC(c2cccs2)N1c1ccc2c(c1)OCCO2 (stereo not given)
- LANA-nucl inh = ·
- Ab BasE inh = 1.3

O=C(O)CCCC(=O)Nc1ccccc1
- LANA-nucl inh = ·
- Ab BasE inh = 2.6

(more compounds)
SMILES	LANA-nucl inh	Ab BasE inh
Cc1cc(-c2csc(CC#N)n2)c(C)n1Cc1ccco1	·	-1.0
O=C(O)CSc1c2c(nc3cc(C(=O)N4CCOCC4)ccc13)CCCC2	0.6	-2.6
COc1ccc(NC(=O)Cn2c(=O)n(Cc3ccco3)c(=O)c3ccc(C(=O)NC4CCCC4)cc32)cc1	-0.97	1.9
O=C1CCCN1CCCNc1nsc2ccccc12	·	-5.8
CC(C)CCNc1ncc2c(n1)CC(c1ccccc1Cl)CC2=O (stereo not given)	·	2.6
O=C(Nc1cccc(C(F)(F)F)c1)Nc1ccc2[nH]c(=O)[nH]c2c1	·	-1.8
COc1nc(-c2ccccc2)nc(C)c1CC(=O)O	0.34	-1.5
COC(=O)C1=C(C)NC(C)=C(C(=O)OC)C1C(=O)OCC(=O)N1CCN(C(C)=O)CC1	·	0.5
c1ccc2c(c1)nc1n2CCSC1	·	0.9
CN1CCC(N(C)Cc2ccccc2)CC1	-0.56	2.3
Cc1ccccc1N1C(=O)c2ccccc2NC1c1ccncc1 (stereo not given)	0.34	1.7
O=C1c2ccccc2C(O)(c2ccccc2)N1c1ccc(N2CCOCC2)cc1 (stereo not given)	-0.24	0.1

The list goes on, starting with the last 3 of the part before.
SMILES	LANA-nucl inh	Ab BasE inh
CN1CCC(N(C)Cc2ccccc2)CC1	-0.56	2.3
Cc1ccccc1N1C(=O)c2ccccc2NC1c1ccncc1 (stereo not given)	0.34	1.7
O=C1c2ccccc2C(O)(c2ccccc2)N1c1ccc(N2CCOCC2)cc1 (stereo not given)	-0.24	0.1
Cc1cccn2c(=O)c3cc(C(=O)NCC4CCCO4)c(=N)n(CCN4CCOCC4)c3nc12 (stereo not given)	0.39	1.6
COc1ccc(CNC(=O)COC(=O)C2=COCCO2)cc1	·	-1.5
O=C1/C(=C/N2CCCCC2)Nc2ccccc21	·	-0.5
O=C(N=C1N=C2N=CC=CN2Cc2ccccc21)C1CCCCC1	·	0.6
CC(C)(C)NC(=O)CCCc1nc(-c2ccccc2)no1	-0.083	-2.0
Cc1nn(C)c2ncc3c(=O)n(Cc4ccccc4Cl)n(C)c3c12	-1.2	1.5
O=C(CNCc1ccco1)Nc1ccccc1-n1cccc1	0.13	-1.1
COc1cc2c(cc1OC)C1=C(C#N)CN(CCc3ccccc3)CN1CC2	·	-0.5
COc1ccc(C(=O)SC2=NCCS2)cc1	-0.14	0.6
CN(C)C(=O)c1c(N)no[n+]1[O-]	-0.37	3.6
O=C(COC(=O)/C=C/c1ccc(Br)o1)Nc1ccc(N2CCOCC2)cc1	·	0.1
CCCCn1c(SCC#N)nc2ccccc2c1=O	·	-0.3
O=c1cc(-c2ccccc2)nc2scc(-c3ccc(Cl)cc3)n12	·	2.6
CCC(=O)OCCNc1nc(-c2ccccc2)nc2ccccc12	·	-0.6
O=c1cc(-c2ccccc2)[nH]c(=S)[nH]1	·	1.3
C=CCn1cc(C(=O)NCC2CCCO2)c(=O)c2cc(S(=O)(=O)N(CC)CC)ccc21 (stereo not given)	0.24	-1.8
COc1c2c(nc3occc13)C(CCC(C)(C)O)(OC)C(O)CC2 (stereo not given)	1.1	-1.0
O=C(NCCO)Nc1c[nH]c2c(Cl)cccc2c1=O	-0.24	-0.3
CSC1=NCCN1C(=O)Cc1ccccc1	1.2	3.0
c1ccc2c(c1)nc(NC1CCCCC1)c1nnnn12	0.14	0.6
C(=N\N1CCOCC1)/c1cn(-c2ccccc2)nc1-c1ccccc1	·	1.8
Cn1nnnc1SCC(=O)Nc1ccc(C(=O)NCc2ccc3c(c2)OCO3)cc1	·	-1.1
O[C@@]1(c2ccccc2)C2C3CC4C5C3C1C5C(F)(F)C42 (stereo not given in full)	-0.44	-0.4
CC1(C)OC(=O)C(=CNc2ncccn2)C(=O)O1	-0.27	3.9
C=CCn1c(-c2ccccc2)csc1=Nc1ccc(O)cc1	·	1.0
Cc1cc(C)c(-n2c(SCC(=O)c3ccc(C#N)cc3)n[nH]c2=O)c(C)c1	·	2.2
COc1cc(/C=N/N(C)C)ccc1OC(=O)c1cccs1	·	0.6
CCOc1ccc(N2C(=O)/C(=C/c3ccc(OC)c(O)c3)N(C)C2=S)cc1	0.96	2.4
O=S(=O)(Nc1cccnc1)c1ccc(Oc2ccccc2)cc1	0.24	11
Cc1cc(=O)[nH]c(=O)[nH]1	·	2.0
O=C(O)C(=Cc1ccc(-c2cccc(C(F)(F)F)c2)o1)C(=O)O	-0.028	3.3
CC(=O)Nc1ccc(NC(NC(=O)c2ccco2)C(=O)c2ccc(Cl)cc2)cc1 (stereo not given)	-1.2	-0.8
COC(=O)c1cc(-c2c(C)oc3cc(OC(C)=O)ccc3c2=O)c(C)o1	·	6.4
O=C(CN1CCN(Cc2ccc(F)cc2)C1=O)NC1CCCC1	-0.35	-0.1
COc1ccc(-c2nnc(SCC(=O)NC(=O)NCc3ccco3)n2C(C)C)cc1	·	4.6
COc1ccc(CC(NC(C)=O)C(=O)N2CCN(C(=O)Nc3ccc(C#N)cc3)CC2)cc1 (stereo not given)	0.38	0.7
COC(=O)c1cn(CC(=O)c2cc(C)n(C)c2C)c2ccccc12	·	-0.2
CCN(CC)S(=O)(=O)c1ccc(NC(C)CCc2ccccc2)nc1 (stereo not given)	·	-1.2
O=S(=O)(Nc1ccc(F)cc1)c1ccc(-n2cccn2)cc1	-0.37	-1.6
COc1cc(-c2cc(N)n(S(=O)(=O)c3ccccc3)n2)cc(OC)c1OC	0.53	-1.7
O=C(NC(Cc1ccccc1)C(=O)N1CCC1)c1ccccc1 (stereo not given)	·	2.6
CC(Nc1nc(C(C)(C)C)cs1)=C(C#N)C#N	·	5.0
Cc1c(C#N)c(/N=C/c2c(O)[nH]c(=O)[nH]c2=O)n(C2CCCCC2)c1C	·	9.8
COc1ccc(-c2nnc(SCC(=O)c3ccc4c(c3)NC(=O)CO4)o2)cc1	·	0.5
COc1cccc(CNc2ncc(-c3ccccc3)n2C)c1	-1.4	0.1
Cc1n[nH]c(C)c1NC(=O)CSc1ccc(F)cc1	·	-0.9
CC(C)CNc1nc2c(c(=O)[nH]c(=O)n2C)n1CC(C)O (stereo not given)	0.25	-0.5
FC(F)(F)c1ccc(-c2noc(CN3CCCC3)n2)cc1	0.19	-0.2

In the list so far, these have two or more sulfur atoms.
SMILES	LANA-nucl inh	Ab BasE inh
CCCSc1nc2sc3c(c2c(=O)[nH]1)C(C)CCC3 (stereo not given)	1.1	-0.2
COc1ccc(C(=O)SC2=NCCS2)cc1	-0.14	0.6

Going on with the list.
SMILES	LANA-nucl inh	Ab BasE inh
N#Cc1ccc(C(=O)N2CCCSC2=NCCc2ccccc2)cc1	·	-0.8
CNC(=O)Nc1ccc(C(=O)O)cc1	-1.1	-0.7
CCN(CC)c1nc2n(c(=O)n1)CCO2	-0.8	2.7
O=C(NCC(=O)N1CCN(c2cccc(C(F)(F)F)c2)CC1)c1ccccc1	·	17
COCC(C)n1c(C)cc(C(=O)COC(=O)c2cc(-c3ccco3)nc3ccccc23)c1C (stereo not given)	·	3.6
N#Cc1cccc(C#N)c1-n1cccc1	0.5	0.2
CN(C)C(=O)Nc1cnc2ccccc2c1	0.36	-0.6
CC1CCCC/C1=N/NC(=O)CNc1ccc(Cl)cc1 (stereo not given)	2.2	-4.8
CC(C)CC(C)c1cc(N)nc2nc3ccccc3n12 (stereo not given)	-0.19	2.8
FC(F)(F)c1nc2ccc(Oc3ccc4nc(C(F)(F)F)[nH]c4c3)cc2[nH]1	0.14	-0.7
CCOCC(=O)Nc1ccccc1C(C)C	-0.74	0.8
Cc1ccc(-n2nc(C)c(C3(O)C(=O)N(C)c4ccccc43)c2N)cc1 (stereo not given)	·	-0.4
Nn1c(Cc2ccccc2F)nnc1SCc1cc(=O)n2ccsc2n1	·	0.9
CC1(c2ccc(Cl)cc2Cl)OCC(Cn2cncn2)O1 (stereo not given)	-0.52	0.1
O/N=C(/c1ccccc1)c1ccccn1	·	-3.8
COc1cc(OC)c2ccc(=O)oc2c1	-0.3	1.5

Bioassay records (PubChem BioAssay)

Not all compounds are listed (hit frequency here may not be typical).
